High-throughput results: PubChem, National Center for Advancing Translational Sciences (NCATS)
StopGo reporter: FMDV 2A StopGo reporter, luciferase signal; human cells with a luciferase reporter of 2A StopGo recoding; control for the full effect not named in the record; Potency, µM (highest dose often 57.9 µM), inactives show at the top dose signal change, negative = less light; actives 1.2% (n = 410,000); active = well fitted falling curve with a large enough effect; inconclusive = small, poorly fitted or top-dose-only effect; inactive = no such curve, though single readings can be large or run the other way; tested in HEK293T cells; further: on the % scale 0 is the no-effect control and ±100 the full control effect; nearly all actives have a fitted effect of over 45% in size; luciferase light after 4 h
RE007 growth inh: less growth of the S. pombe RE007 Vpr strain. AID 651644. Potency, µM (doses to about 92.2 µM), for inactives: top-dose activity change, negative = less growth. actives 0.21% (n = 360,000). S. pombe RE007 Vpr strain, BacTiter-Glo ATP luminescence, 24 h; control for the full effect not named in the record; active = well fitted falling curve with a large enough effect; inconclusive = small, poorly fitted or top-dose-only effect; inactive = no such curve, though single readings can be large or run the other way;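 further: on the % scale 0 is the no-effect control and ±100 the full control effect; nearly all actives have a fitted effect of over 50% in size; the assay follows cell death caused by Vpr and the record does not say whether a fall means rescue or toxicity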
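Fission yeast strain RE007, carrying one chromosomally integrated HIV-1 vpr copy, was seeded at OD 0.01 in PMG+AL medium with 23 nL pinned compound. After 24 h at 30 °C and 99% humidity, viability was read by BacTiter-Glo luminescence.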
SARS PLP yeast: blocks SARS-CoV papain-like protease in a yeast assay. Potency, µM (series often up to 32.9 µM), for inactives: at the top dose activity, positive = growth rescue. actives 0.19% (n = 330,000). S. cerevisiae expressing SARS-CoV PLpro, growth rescue; control for the full effect not named in the record; active means well fitted rising curve with a large enough effect; inconclusive means small, poorly fitted or top-dose-only effect; inactive means no such curve, though single readings can be large or run the other way; further: 0% is about no effect; nearly all actives have a fitted effect of over 55% in size; growth read by luminescence after 48 h
Active calls of the source: *; ? = inconclusive; [ ] = remark or other dose. Potency means the concentration at half of the fitted maximal effect. Only part of the results is shown (hit frequency here may not be typical).

A first look, four compounds:
The line under a structure holds: StopGo reporter	RE007 growth inh	SARS PLP yeast
CCC[C@@H]1Cc2ccccc2N1C(C)=O
 : 4%	20%	-27%
COc1ccc(NC(=O)N(C)C[C@H]2Oc3ccc(NC(=O)CCC(F)(F)F)cc3C(=O)N([C@H](C)CO)C[C@@H]2C)cc1
 : -8%	3%	6%
Cc1ccc(S(=O)(=O)N2CCOCC2)cc1C(=O)OCC(=O)c1c(N)n(C)c(=O)n(C)c1=O
 : -21%	5%	2%
CC(C)(C)OC(=O)N[C@@H](C(=O)OC(C)(C)C)c1ccc(C(F)(F)F)cc1
 : -17%	-7%	-11%

Main list (from the top)
The line under a structure holds: StopGo reporter	RE007 growth inh	SARS PLP yeast
CCC[C@@H]1Cc2ccccc2N1C(C)=O
 : 4%	20%	-27%
COc1ccc(NC(=O)N(C)C[C@H]2Oc3ccc(NC(=O)CCC(F)(F)F)cc3C(=O)N([C@H](C)CO)C[C@@H]2C)cc1
 : -8%	3%	6%
Cc1ccc(S(=O)(=O)N2CCOCC2)cc1C(=O)OCC(=O)c1c(N)n(C)c(=O)n(C)c1=O
 : -21%	5%	2%
CC(C)(C)OC(=O)N[C@@H](C(=O)OC(C)(C)C)c1ccc(C(F)(F)F)cc1
 : -17%	-7%	-11%
COc1ccccc1OCCNC(=O)c1cccc(S(=O)(=O)NCc2ccccc2)c1
 : -20%	1%	6%
CCOC(=O)C1CCCN(C(=O)c2cc(S(=O)(=O)N3CCCCCC3)ccc2OC)C1 (stereo not drawn)
 : -13%	-3%	0%
CCN(CC)CCNC(=O)c1ccc(NC(=O)c2cccc(S(=O)(=O)Nc3ccc(C)cc3)c2)cc1
 : 21%	3%	-3%
O=C1CCC(=O)N1c1ccc(NC2CCN(Cc3ccccc3)CC2)c([N+](=O)[O-])c1
 : -16%	2%	-1%
CCCCN(C(=O)CC1CCCC1)c1c(N)n(CCC)c(=O)[nH]c1=O
 : 1%	-3%	5%
COc1ccccc1NC(=O)C(C)OC(=O)CSCC(=O)Nc1ccc(C)cc1C (stereo not drawn)
 : -11%	0%	3%
CC(NC(=O)COC(=O)C1CC1C)c1cccc(Cl)c1 (stereo not drawn)
 : -9%	8%	1%
CCOc1ccc(NC(=O)CN(c2ccc(OC)cc2)S(=O)(=O)c2cccs2)cc1
 : -11%	-7%	3%
Cc1ccc(CN(C)CC(=O)Nc2ccccc2C(=O)NC2CC2)o1
 : -8%	2%	-2%
CC(C)(C)OC(=O)C[C@H]1C/C=C\C[C@@H](CC(=O)N[C@@H](CO)Cc2ccccc2)C(=O)NCCOC1=O
 : -28%	-5%	-3%
O=C1O[C@@H](c2ccc(O)cc2)Cc2cccc(O)c21
 : 10%	-11%	5%
CC1(C)Cc2ccccc2C(/C(C#N)=N/O)=N1
 : 13%	-3%	0%
CCOC(=O)c1cccc(NC(=O)c2ccccc2C)c1
 : 17%	2%	-1%
CCN(CC)CCNC(=O)c1cc2ccccc2nc1Cl
 : 11%	-22%	-1%
Cc1cc(C)c2nc(N3CCC(C(=O)NCc4cccnc4)CC3)sc2c1
 : -1%	5%	-3%
C=CC[C@@H](Cc1ccc(F)cc1)C(=O)OC[C@H]1CCCN1C(=O)[C@@H](CC=C)CC(=O)N(CCO)Cc1ccccc1
 : ?	6%	2%

Full records, looked up by structure. Values in the order: StopGo reporter	RE007 growth inh	SARS PLP yeast
Listed for `CCOc1ccc(NC(=O)CN(c2ccc(OC)cc2)S(=O)(=O)c2cccs2)cc1` = -11%	-7%	3%
Listed for `CC(NC(=O)COC(=O)C1CC1C)c1cccc(Cl)c1` (stereo not drawn) = -9%	8%	1%
Listed for `CC1(C)Cc2ccccc2C(/C(C#N)=N/O)=N1` = 13%	-3%	0%

The listing continues:
The line under a structure holds: StopGo reporter	RE007 growth inh	SARS PLP yeast
Cc1noc(C)c1NC(=O)N(C)C[C@H]1Oc2ccc(NC(=O)NC3CCCCC3)cc2C(=O)N([C@H](C)CO)C[C@@H]1C
 : -4%	8%	5%
COc1cc(S(=O)(=O)N2CCN(C(=O)C3CC3)CC2)ccc1NC(C)=O
 : -5%	1%	2%
Cc1ccc(S(=O)(=O)N2CCCC2)cc1C(=O)Nc1ccc(-n2cnnn2)cc1
 : ?	11%	-2%
O=C(NCCC1=CCCCC1)c1ccc(-n2cncn2)cc1
 : 66%[activator]	-20%	6%
CCN1C(=O)[C@H]2[C@@H](c3ccc(-c4ccc5c(c4)OCO5)c(OC)c3)N[C@@](C)(C(=O)OC)[C@H]2C1=O
 : -19%	-3%	-8%
C#CCOCCOCCOCCNc1nc(N2CCN(C(=O)[C@H](CC(N)=O)n3cc([C@@H](N)CC(N)=O)nn3)CC2)nc(N2CCN(C(=O)[C@H](CC(N)=O)n3cc([C@@H](N)CC(N)=O)nn3)CC2)n1
 : 0%	4%	-1%
NNC(=O)CSc1ncc(-c2ccccc2)[nH]1
 : 25%	5%	2%
O=C1CN=C(c2ccc(Br)cc2)c2c(sc3c2CCCC3)N1CCN1CCCCC1
 : ?	-4%	5%
COC(=O)C1=C(c2ccc(-c3ccccc3)c(F)c2)C[C@@H]2CC[C@H]1N2C(=O)N1CCC(C)CC1
 : -7%	-9%	4%
CN(CC(=O)Nc1ccccc1Cl)C(=O)COC(=O)/C=C/c1cccc(C(F)(F)F)c1
 : -11%	3%	0%
CCCC[C@@H]1CNCCN1CCCc1cc(OC)c(OC)c(OC)c1
 : -6%	-7%	1%
CC(=O)C[C@H](O)CC(=O)[C@H]1OC(=O)CCCCCc2ccccc21
 : -15%	30%	-2%
CSc1nc(N)nc2c1ncn2CC(=O)NCC1CCCO1 (stereo not drawn)
 : -19%	6%	5%
C[C@H](NC(=O)c1nc[nH]c1C(=O)NC1CCNCC1)C(=O)OC(C)(C)C
 : -18%	7%	2%
O=[N+]([O-])c1nn(-c2ccc3c(c2)OCCO3)n(O)c1=NC1CCN(Cc2ccccc2)CC1
 : 4%	4%	2%
COc1cc(C)c(CN2CCN(S(=O)(=O)c3ccc(Cl)s3)CC2)cc1OC
 : ?	-9%	11%
CC(=O)Oc1ccc(-c2ccc(C(=O)OCC(=O)c3c(N)n(C)c(=O)n(C)c3=O)cc2)cc1
 : -15%	-2%	17%
CN(CC(=O)O)C(=O)c1ccccc1
 : -17%	-9%	0%
Cc1c(C(=O)N2CCN(S(=O)(=O)c3cccs3)CC2)oc2ccc(F)cc12
 : -18%	-9%	-2%
CCN(CC(=O)Nc1c(F)cccc1F)C(=O)CNC(=O)COc1ccccc1
 : 2%	-1%	4%

Part of the list above, showing only RE007 growth inh.
| SMILES | RE007 growth inh |
| --- | --- |
| CC(NC(=O)COC(=O)C1CC1C)c1cccc(Cl)c1 (stereo not drawn) | 8% |
| COc1ccc(NC(=O)N(C)C[C@H]2Oc3ccc(NC(=O)CCC(F)(F)F)cc3C(=O)N([C@H](C)CO)C[C@@H]2C)cc1 | 3% |

The list goes on.
The line under a structure holds: StopGo reporter	RE007 growth inh	SARS PLP yeast
C[C@H](CO)N1C[C@H](C)[C@@H](CN(C)Cc2ccc3c(c2)OCO3)Oc2ccc(NC(=O)Cn3cnnn3)cc2C1=O
 : -13%	8%	5%
C=CCSc1nnc(NC(=O)c2ccc(N3CCCC3=O)cc2)s1
 : 46%[activator]	-11%	0%
O=C(CSc1nnc2ccccn12)NCc1ccco1
 : 4%	-21%	-3%
COc1ccc(C(=O)NC(=O)CSc2nc3nc(C)cc(C)n3n2)cc1
 : -17%	0%	0%
CCCCNS(=O)(=O)CCNCc1ccco1
 : -12%	-8%	10%
CC[C@H](C)Cc1cn([C@@H](CCCN=C(N)N)C(=O)NCCCCCCCCCCC(=O)N2CCNCC2)nn1
 : -1%	6%	6%
Cc1ccnc2c1ccc1c(C)ccnc12
 : -3%	?	0%
COC(=O)[C@@]1(C)[C@H]2C(=O)N(C)C(=O)[C@H]2[C@H]2CN=C(SCc3ccccc3)N21
 : -15%	0%	5%
COCCNC(=O)CCCn1c(=O)c2ccccc2n(Cc2cccc([N+](=O)[O-])c2)c1=O
 : 13%	-5%	-3%
CN(Cc1ccccc1Br)C(=O)CSc1nnnn1C1CC1
 : 17%	6%	0%
COC(=O)[C@@]12CCCN1[C@H](c1ccc(-c3ccc(C(C)=O)cc3)c(OC)c1)[C@H]1C(=O)N(C)C(=O)[C@H]12
 : -11%	8%	-7%
COc1ccc(-n2c(=O)c3ccccc3n(CC(=O)c3ccccc3)c2=O)cc1OC
 : -5%	-5%	-2%
O=C(Nc1cccc2ccccc12)NC1CCCCC1O (stereo not drawn)
 : 0%	-4%	0%
C/C(=N\OC(=O)c1ccccc1)c1c(C)nc2cc(C)ccn12
 : -16%	-16%	0%
Cc1ccc(NC(=O)C2CCN(c3cnccn3)CC2)cc1
 : -14%	-13%	0%
CCN(C(=O)c1ccc(Cl)c(S(=O)(=O)Nc2c(C)n(C)n(-c3ccccc3)c2=O)c1)c1ccccc1
 : -2%	-10%	-1%
CC(=O)c1ccccc1NC(=O)COC(=O)c1cc(C)oc1C
 : 9%	-6%	4%
CC[C@]12c3[nH]c4ccc(OC)cc4c3CCN1C(=O)C(CC(=O)NCCCOC)C[C@@H]2C(=O)N1CCN(C(=O)c2ccco2)CC1 (stereo partly drawn)
 : -10%	0%	3%
COc1cccc(CNC(=O)c2cccc(NC(=O)CC3SC(N4CCCCC4)=NC3=O)c2)c1 (stereo not drawn)
 : ?	-8%	3%
Cc1ccc(S(=O)(=O)N2C[C@@H]3[C@H]4CC[C@H](C4)[C@@H]3[C@@H](C)[C@@H]2c2cn(Cc3ccccc3)c3ccc(F)cc23)cc1
 : 0%	-8%	-7%
CC1(CCc2ccccc2)NC(=O)N(CC(=O)Nc2ccc3c(c2)OCCO3)C1=O (stereo not drawn)
 : -10%	-5%	0%
Cc1cc(C)n2nc(C(=O)Nc3cc(S(=O)(=O)N4CCCCC4)ccc3C)nc2n1
 : 6%	-14%	1%
COc1ccc2c3n([n+]([O-])c2c1)CCN=C3c1ccc(Cl)cc1
 : 32%[activator]	-13%	?
COc1ccc(O)c(-c2nc(N)nc(N)n2)c1
 : 51%[activator]	-21%	4%
O=C(Cc1ccccc1F)Nc1cc(S(=O)(=O)N2CCCC2)ccc1Cl
 : 13%	10%	4%
COC(=O)[C@]1(C)N[C@H](CN(C)S(=O)(=O)c2ccc(OC(F)(F)F)cc2)[C@@H]2C(=O)N(Cc3ccccc3)C(=O)[C@@H]21
 : -22%	-15%	-1%
COc1ccc(CC(=O)Nc2cc(S(=O)(=O)N3CCCC3)ccc2Cl)c(OC)c1
 : -20%	5%	-7%
COc1ccc(-c2ccc3c(c2)S(=O)(=O)c2cccc(C(=O)NCCOc4ccccc4Cl)c2C3=O)cc1OC
 : -13%	-17%	2%
CS(=O)(=O)N1CCC(NC(=O)Nc2ccc(OC(F)(F)F)cc2)CC1
 : 14%	-8%	-2%
O=C(CSc1ccc2c(c1)OCCO2)N1CCN(c2ccccc2)CC1
 : -5%	-15%	2%
N#Cc1cccc(C(=O)Nc2ccc(S(=O)(=O)Nc3nccs3)cc2)c1
 : 3%	-5%	-1%
CCOC(=O)c1cc(C#N)c(N2CCN(c3ccc(OC)cc3)CC2)[nH]c1=O
 : -4%	-18%	-3%
C=C[C@@H]1c2cc(C)ccc2N(S(=O)(=O)c2ccc(C)cc2)[C@H](c2ccc(OC(C)=O)cc2)C1(C#N)C#N
 : 0%	-1%	3%
CSCCC(NC(=O)c1ccccc1)C(=O)N1CC(C)OC(C)C1 (stereo not drawn)
 : -7%	12%	5%
O=C(COC(=O)c1cc(Cl)ccc1O)Nc1ccccc1C(=O)NC1CC1
 : -15%	-7%	-2%
CC1(C)C[C@H]2C3=CCC4[C@@]5(C)CC[C@H](O)[C@](C)(CO)C5CC[C@@]4(C)[C@]3(C)C[C@H]3O[C@@H]1[C@H](O)[C@]32CO (stereo partly drawn)
 : 43%[activator]	-11%	2%
CCN(Cc1cccs1)C(=O)CN1C(=O)NC(c2ccccc2)(c2ccccc2)C1=O
 : -30%	-2%	-2%
COCc1cc(C)nc(OCC(=O)N/N=C/c2ccc(C)o2)c1C#N
 : -9%	5%	0%
CC[C@@]1(C(=O)OC)N[C@H](CN(C)C(=O)COc2ccccc2)[C@@H]2C(=O)N(Cc3ccccc3)C(=O)[C@@H]21
 : 12%	-9%	3%
O=C1c2ccccc2[C@@H]2C[C@@H](O)[C@H](Nc3ccccc3-c3ccccc3)CCN12
 : -18%	-7%	?
COc1ccc(NC(=O)CN(C)C(=O)c2cn(-c3ccccc3)nc2-c2ccc(F)cc2)cc1
 : -21%	-11%	6%
